PINK1 expr mod = PINK1 expression modulation | PINK1 immunofluorescence, high-content cytometry, 24 h | Potency, µM (top dose mostly 76.6 µM), for inactives: at the top dose activation (PINK1 increase), most hits filed as activators | 410,000 tested, 0.2% active; active = well fitted activation curve with a large enough effect; inconclusive = small, poorly fitted or top-dose-only effect; inactive = flat fitted curve, though single readings scatter; cell line not stated here;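 note: % of control where 0% means no effect; nearly all actives have a fitted effect of over 65% in size; a mitochondrial uncoupler was the plate control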
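Stable cell line treated 24 h with compounds at 5 concentrations (CCCP controls), then fixed and immunostained for PINK1 plus nuclear and cell stains; PINK1 immunofluorescence quantified by laser-scanning microplate cytometry.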
Numbers without * were called inactive; ? = inconclusive. Potency is the fitted concentration of half-maximal effect. These rows are one share of the data. The share of hits here may be higher or lower than overall.

SMILES	PINK1 expr mod
COc1ccc(Cn2c(C(=O)O)c(CNCCc3ccccc3Cl)c3ccc(C)cc32)cc1	1.3%
CCC(=O)N1CCc2cc(Br)cc(S(=O)(=O)CCC(=O)Nc3cccc(C)c3C)c21	0.3%
COc1ccc2[nH]c3c(c2c1)CCN(C(=O)c1cccc(Cl)c1)C3c1ccc(F)cc1 (stereo unspecified)	0.2%
COc1ccc(S(=O)(=O)c2cn(C)c3ccc(C)cc3c2=O)cc1	0.0%
CCc1cccc(C)c1NC(=O)CN1C(=O)c2cccc3cccc1c23	0.9%
COc1cccc(C2NC(=O)c3n[nH]c(-c4cccs4)c32)c1 (stereo unspecified)	8.7%
CCOc1ccc(C(=O)NCc2ccc3c(c2)CCN3C(=O)c2ccccc2)cc1	2.4%
CCN(C(=O)Cn1c(C(=O)OC)cc2oc3ccccc3c21)c1cccc(C)c1	20.2%
CC(C)c1cnc2c(c1SCC(=O)O)c(=O)n(C)c(=O)n2C	-0.7%
CCc1ccc(C2C(C(=O)Nc3ccccc3C)=C(C)Nc3nc(SCc4cccc(OC)c4)nn32)cc1 (stereo unspecified)	0.0%
COc1ccc(NC(=O)CSc2nc3ccccc3[nH]2)cc1	-1.1%
Cc1ccc(Sc2c(C(=O)NCc3ccccc3C)[nH]c3ccccc23)cc1	7.5%
O=C(NCCO)c1cn(C2CCN(Cc3c(F)cccc3Cl)CC2)nn1	0.7%
Cc1cc(C)n(C(C)CC(=O)NCc2ccc(N(C)C)cc2)n1 (stereo unspecified)	-0.9%
O=C(Nc1c(Cl)cc([N+](=O)[O-])cc1Cl)c1cc(Cl)ccc1O	?
COc1ccc(NC(=O)c2ccco2)cc1NC(=O)COc1ccccc1Cl	10.4%
Fc1ccc2[nH]c3c(NCc4ccco4)ncnc3c2c1	-0.2%
Cc1ccc(NC(=O)C(=O)NCC(c2ccc3c(c2)OCO3)N2CCN(C)CC2)cc1C (stereo unspecified)	-0.8%
O=C(CSc1ncc2c(n1)-c1cc(Cl)ccc1N(Cc1ccccc1)S2(=O)=O)NCCc1ccccc1	-0.3%
COc1ccc(Cl)cc1NC(=O)Cn1nc(C(F)(F)F)c2c1CCCC2	5.1%
O=C(NCc1ccccc1F)c1cccc(NC(=O)N2CCSc3ncccc32)c1	0.6%
COC(=O)c1c(SCC(=O)Nc2cc(OC)cc(OC)c2)[nH]c2ccc(C)cc2c1=O	-0.2%
O=C(c1ccco1)n1nc(-c2ccc(Cl)cc2)nc1NCc1ccc(F)cc1	-0.9%
CCc1ccc(S(=O)(=O)c2nnn3c2nc(Nc2cc(OC)cc(OC)c2)c2cc(Cl)ccc23)cc1	-2.6%
Cc1ccc(C)c(N2CCN(S(=O)(=O)c3ccc4[nH]c5c(c4c3)CCCC5)CC2)c1	14.9%
(continued)
SMILES	PINK1 expr mod
CC(=O)Nc1ccc(S(=O)(=O)N2CCC(N3CCN(Cc4ccc(C)cc4)C(=O)C3=O)CC2)cc1	3.6%
O=C(Nc1nc2n(n1)C(c1ccccc1)C=C(c1ccccc1)N2)c1ccccc1 (stereo unspecified)	0.6%
CC(=O)N(Cc1cccnc1)c1nc2c(F)cc(F)cc2s1	-0.6%
CN1CCN(C(CNC(=O)C(=O)Nc2cccc(Cl)c2)c2ccc3c(c2)OCO3)CC1 (stereo unspecified)	2.0%
O=C(OCC#CCSc1nnc(-c2cccc3ccccc23)o1)c1ccc2ccccc2c1	0.4%
CCCCN1C(C(=O)c2ccccc2)=C(OC(=O)CC)c2ccccc2S1(=O)=O	22.2%
CCn1cc(S(=O)(=O)c2cc(C)cc(C)c2)c(=O)c2cc(F)c(N3CCCCC3)cc21	3.5%
CC(=O)NC(Cc1ccc(I)cc1)C(=O)NCC(N)C(=O)c1ccccc1 (stereo unspecified)	0.7%
Cc1ccc(N2CC(c3nnc(NC(=O)c4ccco4)s3)CC2=O)cc1C (stereo unspecified)	2.5%
Cc1ccccc1CSc1ncc(Cl)c(C(=O)Nc2nc3ccc(F)cc3s2)n1	3.3%
O=C(NC1(C(F)(F)F)NC(=O)N(CCc2ccccc2)C1=O)c1ccc(Cl)cc1 (stereo unspecified)	2.1%
CCCOc1ccc(N2CC(C(=O)Nc3cccc(Cl)c3Cl)CC2=O)cc1 (stereo unspecified)	2.1%
COc1cccc(C(=O)N2CCc3cc(OC)c(OC)cc3C2COc2ccc3c(C)cc(=O)oc3c2)c1 (stereo unspecified)	0.0%
COc1ccc(-n2nc(C(=O)Nc3cc(C)c(Cl)cc3OC)c3c4ccccc4n(C)c3c2=O)cc1	1.6%
CCOC(=O)c1ccc(Nc2cc(-c3ccccc3)nc(C)n2)cc1	5.6%
Cc1cccc(NC(=O)C(Cc2ccccc2)n2cccc2)c1C (stereo unspecified)	4.0%
O=C(Nc1ccccc1C(F)(F)F)N1Cc2ccccc2Oc2ncccc21	0.0%
COc1ccccc1NC(=O)Cn1c(=O)n(Cc2ccco2)c(=O)c2oc3ccccc3c21	0.6%
Cc1ccc(NC(=O)CN2C(=O)C(c3ccc(C(C)(C)C)cc3)=NC2(C)C)cc1	0.6%
COc1ccc2c(c1)C(C)(CCN)C(=O)N2C (stereo unspecified)	-0.8%
COc1cc2nc(SCc3cccc(Cl)c3)n3nc(CCn4nc(C)cc4C)nc3c2cc1OC	3.3%
CCOc1ccc(NS(=O)(=O)c2ccc3[nH]cc(C(=O)N(C)Cc4ccccc4)c(=O)c3c2)cc1	6.6%
COc1ccc(OC)c(NC(=O)CSc2n[nH]c(-c3ccccc3Cl)n2)c1	-0.5%
CC(=O)N1CCCC1c1nc2ccccc2n1Cc1ccccc1F (stereo unspecified)	0.3%
CCOC(=O)c1ccccc1NC(=O)Cn1ncc2c([nH]c3ccccc32)c1=O	9.8%
More records follow:
SMILES	PINK1 expr mod
CCC(=O)N1CCc2cc(Br)cc(S(=O)(=O)NCCc3ccc(C)cc3)c21	0.7%
CCOc1ccc(-c2nc3c(c(SCC(=O)Nc4ccccc4C)n2)Cc2ccccc2O3)cc1	-2.6%
CN(Cc1ccccc1)C(=O)C1CCN(S(=O)(=O)c2ccc3c(c2)oc(=O)n3C)CC1	?
COc1ccc(C2C=C(c3ccc(Cl)c(Cl)c3)Nc3ncnn32)cc1 (stereo unspecified)	2.4%
O=C(COc1ccc(Cl)cc1)Nc1ccc(-c2nc3ccccc3s2)c(O)c1	0.3%
CCc1ccc(NC(=O)c2cc3sc(Cl)cc3n2C)cc1	2.2%
Cc1cccc(N2CCN(CCCNc3ncnc4onc(-c5ccc(Cl)cc5)c34)CC2C)c1 (stereo unspecified)	-4.1%
Cc1ccc(S(=O)(=O)c2nc(-c3ccccc3F)oc2N2CCCCC2)cc1	-1.6%
Cc1c(C(=O)N2CCCC2)sc2ncnc(NCCN(C)C)c12	0.5%
Cc1ccc(-n2c(SCC(=O)c3ccccc3)nc3c([nH]c4ccccc43)c2=O)cc1	6.0%
CCCCN(c1ccccc1)c1ncnc2c1cnn2-c1cccc(C)c1	1.3%
COc1ccc(CCNC(=O)CCn2c(=O)c3ccccc3n(CC(=O)Nc3cc(Cl)ccc3C)c2=O)cc1OC	0.5%
CCc1ccc(OCC(=O)Nc2ccc(S(=O)(=O)Nc3onc(C)c3C)cc2)cc1	-0.2%
CC1CCN(S(=O)(=O)c2ccc3c(ccn3CCC(=O)NCc3ccc(N(C)C)cc3)c2)CC1	2.6%
Cc1ccc(OCC(=O)Nc2ccc(Cl)c(-c3nc4ccccc4[nH]3)c2)cc1C	1.8%
CCN1CCN(c2nnc(-n3cccc3C(=O)NCc3ccccc3OC)s2)CC1	0.2%
COc1cccc(NC(=O)CC2C(=O)OCCN2Cc2ccccc2)c1 (stereo unspecified)	1.3%
CCc1ccc(NC(=O)Cn2cnc3sc(C)c(S(=O)(=O)N4CCN(c5ccccc5OC)CC4)c3c2=O)cc1	0.6%
O=C1C(Nc2ccccc2)=CC(c2ccc(Br)cc2)N1c1ccccc1 (stereo unspecified)	0.0%
CCCC12CN3CC(C)(CN(C1)C3c1ccccc1Cl)C2=O (stereo unspecified)	5.2%
CCc1sc(-c2cc3ccc(O)cc3oc2=O)nc1-c1ccc(C)cc1	0.7%
COc1ccc(NC(=O)CSc2nnc(-c3ccc(OC)cc3)s2)cc1	0.2%
COc1ccc(-c2nc3n(n2)C(=O)CC(c2ccc(Cl)cc2)S3)cc1 (stereo unspecified)	2.2%
Cc1ccc(C)c(NC(=O)N2CCN3CCCCC3C2)c1 (stereo unspecified)	-0.6%
CC1CCN(c2nn3c(=O)c(C(=O)NCc4ccc(Cl)cc4)cnc3s2)CC1	1.7%

Compounds from the list above with two or more sulfur atoms, in the order listed:
SMILES	PINK1 expr mod
O=C(CSc1ncc2c(n1)-c1cc(Cl)ccc1N(Cc1ccccc1)S2(=O)=O)NCCc1ccccc1	-0.3%
Cc1ccccc1CSc1ncc(Cl)c(C(=O)Nc2nc3ccc(F)cc3s2)n1	3.3%
CCc1ccc(NC(=O)Cn2cnc3sc(C)c(S(=O)(=O)N4CCN(c5ccccc5OC)CC4)c3c2=O)cc1	0.6%
COc1ccc(NC(=O)CSc2nnc(-c3ccc(OC)cc3)s2)cc1	0.2%

Continuation:
SMILES	PINK1 expr mod
CCN1C(Br)=CCc2ccccc21	1.3%
COc1ccc(NC(=O)CCCn2c(=O)c3cccn3c3ccccc32)c(OC)c1	0.7%
COc1ccccc1-c1cc(C(=O)NCc2ccccc2)c2c(-c3ccc(C)cc3)[nH]nc2n1	-0.6%
Cc1cccc(CNC(=O)c2cnn(-c3nccc(-c4ccccc4F)n3)c2C2CC2)n1	-0.3%
CCCCNC(=O)c1ccc2c(c1)N=C(CC)c1ccccc1S2	6.8%
Cc1ccn2c(=O)cc(COc3ccc(NC(=O)COc4ccc(Cl)cc4)cc3)nc2c1	0.3%
Cc1ccccc1Cn1cc(S(=O)(=O)c2ccc(F)cc2)c(=O)c2cc3c(cc21)OCO3	0.3%
COc1ccc(NC(=O)Cn2c(SCc3ccc(C)cc3)nc3cccnc32)cc1OC	6.0%
Cc1ccccc1Cn1c(C(=O)O)c(CNCc2cccc(F)c2)c2ccccc21	2.6%
Cc1c(Cl)cccc1NC(=O)CSc1ncccc1C(=O)Oc1ccccc1Cl	0.7%
COc1cc(NC(=O)CCn2nc(C)cc2C)cc(OC)c1OC	-0.9%
CCc1ccc(C(=O)COC(=O)C(Cc2c[nH]c3ccccc23)NC(=O)c2ccc(CC)cc2)cc1 (stereo unspecified)	-0.8%
COc1ccccc1CNC(=O)CCC1N=C2c3ccccc3N=C(SCC(N)=O)N2C1=O (stereo unspecified)	-0.5%
Cc1cc(C)cc(NC(=O)CSc2nc3c(cnn3-c3ccc(F)cc3)c(=O)[nH]2)c1	-0.1%
CCn1c(=O)c(C(=O)Nc2ccc(C(C)=O)cc2)nc2ccccc21	0.9%
COc1cccc2c1cc1c(=O)n(CC(=O)NCc3ccc(C)o3)nc(C)n12	1.3%
CCOC(=O)c1cnc2ccc(C)cc2c1Nc1ccc(N(CC)CC)cc1	?
CCCCNS(=O)(=O)c1ccc(C)c(-c2nnc3c4ccccc4c(C)nn23)c1	-0.3%
O=C(Nc1ccc(F)cc1F)c1cc(CN2CCOCC2)on1	-0.8%
Cc1ccc(NC(=O)c2ccccc2Br)c(C(=O)c2ccccc2)c1	2.8%
CC(C)c1ccc(CNc2nc(-c3ccco3)nn2S(=O)(=O)c2ccc(F)cc2)cc1	2.4%
COc1ccc(CCNC(=O)c2ccc(Cn3c(SCc4ccccc4)nc4cccnc43)cc2)cc1	5.8%
CCCN1CCN(CCCNC(=O)Cn2c(-c3cccs3)cc3cc(Cl)ccc32)CC1	1.0%
CC(C)(C)C1CCc2c(sc(NC(=O)c3ccccc3F)c2C(=O)N2CCCCC2)C1 (stereo unspecified)	0.6%
CC1CN(C(=O)N2CCC(C(=O)N3CCN(c4ccccc4)CC3)CC2)c2cc(Cl)ccc2O1 (stereo unspecified)	-1.3%
(further entries)
SMILES	PINK1 expr mod
COc1ccc(CNC(=O)c2cnc3sc(N4CCOCC4)nn3c2=O)cc1	0.4%
CC(=O)N1CCCC1c1nc2ccccc2n1Cc1ccccc1 (stereo unspecified)	1.9%
O=C(Cc1ccc(-c2ccccc2)cc1)NCCS(=O)(=O)N1CCN(c2ccccc2F)CC1	7.8%
CCOc1ccc(-n2c(SCC(=O)Nc3ccc(F)cc3)nc3c([nH]c4ccccc43)c2=O)cc1	-2.6%
O=C(NCc1ccco1)c1ccc2c(c1)N(Cc1ccc(Cl)cc1)C(=O)c1ccccc1S2	-0.7%
Cc1cc(C(=O)Nc2ccccc2-c2nc(CNC(=O)c3ccccc3Cl)c(C)o2)c(C)o1	1.4%
COC(=O)c1ccc(NC(=O)CC2C(=O)N(c3ccc(Cl)cc3)C(=O)N2Cc2cccs2)cc1 (stereo unspecified)	3.4%
CCC1(C2CCN(Cc3c(C)[nH]c4ccccc34)CC2)NC(=O)N(Cc2ccc3c(c2)OCO3)C1=O (stereo unspecified)	0.4%
CCS(=O)(=O)NCCc1csc2nc(-c3ccc(C)cc3)nn12	-0.9%
COc1cccc(CCn2c(N)cc(=O)[nH]c2=S)c1OC	0.1%

6 entries drawn at random from those above:
SMILES	PINK1 expr mod
COc1ccc(CNC(=O)c2cnc3sc(N4CCOCC4)nn3c2=O)cc1	0.4%
COC(=O)c1ccc(NC(=O)CC2C(=O)N(c3ccc(Cl)cc3)C(=O)N2Cc2cccs2)cc1 (stereo unspecified)	3.4%
COc1cccc(CCn2c(N)cc(=O)[nH]c2=S)c1OC	0.1%
O=C(NCc1ccco1)c1ccc2c(c1)N(Cc1ccc(Cl)cc1)C(=O)c1ccccc1S2	-0.7%
CCS(=O)(=O)NCCc1csc2nc(-c3ccc(C)cc3)nn12	-0.9%
CCOc1ccc(-n2c(SCC(=O)Nc3ccc(F)cc3)nc3c([nH]c4ccccc43)c2=O)cc1	-2.6%
